Screens as filed in PubChem BioAssay.
HSV augment: increases HSV replication in cells; HSV replication augmentation in cells, fold increase; maximum fold increase; hit rate 0.005% among 220,000;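 active = peak rise of 1.5-fold or more in the series; tested in PC3 cells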;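 note: first round at 10 µM; read as green reporter fluorescence; hits show the peak of a series up to 25 µM; 1 = signal of infected wells without compound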
INS promoter inh: TRM-6 insulin promoter activity inhibition; TRM-6 cells (human fetal islet line), insulin promoter-eGFP reporter, imaging; reporter expression induced with tamoxifen; inhibition, % at 2 µM; hit rate 0.9% among 130,000; AID 1273;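 active = inhibition above the mean plus 3 SD, with well images judged a real hit on visual review, cut at about 60% in these data, passing the limit was not always enough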
PKD1 kinase inh: PKD1 (human) kinase inhibition. hit rate 0.056% among 200,000. PKD1 kinase fluorescence polarization assay. inhibition, %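 (about 10 µM by stock and volumes)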. Q15139;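 active = inhibition of 50% or more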;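 note: controls were vehicle for no effect and a reference inhibitor for full effect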
GALR2 ag: GALR2 (human) receptor agonism; O43603; GALR2-expressing cells, agonist activation read-out; activation, %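 (tested at 5 µM)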; hit rate 0.48% among 140,000; AID 803;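 active = above mean plus 3 SD of all compounds, about 5% in these data, not always enough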;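 note: 0% = vehicle buffer wells and 100% = reference agonist at full effect; tested in CHO reporter cells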
Target sequence (O43603 whole entry, looked up): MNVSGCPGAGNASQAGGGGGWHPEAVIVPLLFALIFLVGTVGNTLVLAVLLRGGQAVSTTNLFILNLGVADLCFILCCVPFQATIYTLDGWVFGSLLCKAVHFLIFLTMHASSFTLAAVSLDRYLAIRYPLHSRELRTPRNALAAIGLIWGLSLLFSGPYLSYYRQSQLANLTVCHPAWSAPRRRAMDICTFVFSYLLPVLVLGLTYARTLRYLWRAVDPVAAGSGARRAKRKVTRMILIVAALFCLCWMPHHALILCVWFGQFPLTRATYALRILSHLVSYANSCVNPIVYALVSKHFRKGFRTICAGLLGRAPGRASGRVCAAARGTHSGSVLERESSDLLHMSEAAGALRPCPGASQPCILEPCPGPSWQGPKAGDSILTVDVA
RGS16-Gao: modulates binding between human RGS16 and Galphao | binding response (% of control), % at 10 µM | bead-based flow cytometry RGS16-Galphao binding, fluorescence; actives lie on both sides | hit rate 0.38% among 220,000;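 active = below 25% or above 175%, edge rows of some plates excepted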;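 note: Galphao activated by GDP with aluminum fluoride before binding; 100% = wells without compound and 0% = beads without RGS; some results beyond the cut were filed as inactive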
Target sequence (O15492 whole entry, looked up): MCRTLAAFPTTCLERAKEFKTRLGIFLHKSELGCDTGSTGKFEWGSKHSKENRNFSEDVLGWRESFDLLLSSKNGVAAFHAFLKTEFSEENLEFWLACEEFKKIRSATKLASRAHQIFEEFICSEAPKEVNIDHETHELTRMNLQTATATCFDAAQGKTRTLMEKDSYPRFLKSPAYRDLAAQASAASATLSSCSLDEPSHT
Target sequence (P09471 whole entry, looked up): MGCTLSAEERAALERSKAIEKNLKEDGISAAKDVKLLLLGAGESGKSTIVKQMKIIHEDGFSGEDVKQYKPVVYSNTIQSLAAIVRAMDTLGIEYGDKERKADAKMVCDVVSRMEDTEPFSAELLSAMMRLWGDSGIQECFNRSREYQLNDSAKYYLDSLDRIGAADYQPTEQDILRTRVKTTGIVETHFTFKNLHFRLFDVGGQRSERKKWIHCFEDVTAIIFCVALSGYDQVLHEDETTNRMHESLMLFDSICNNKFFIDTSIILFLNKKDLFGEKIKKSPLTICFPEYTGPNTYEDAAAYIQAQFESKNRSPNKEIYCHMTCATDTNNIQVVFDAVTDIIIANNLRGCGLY
INS promoter inh cell count: second read-out of INS promoter inh, no call of its own (marks repeat the call); normalized cell count, %; measured here: cell count, toxicity; reference of the scale not given here;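 cells exposed to compound for 48 h; stained nuclei by imaging scaled within each plate; lower means fewer cells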
HSV augment primary fold: further read-out of HSV augment, marked with its call; fold increase; compound at 10 µM; measured here: primary screen fold increase 10 uM; tested in PC3 cells;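 GFP signal in the first replicate; 1 = infected wells without compound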
Numbers without * were called inactive; i = inactive; . = no result given.

The opening three entries, ahead of the listing:
Second line of a record: HSV augment, HSV augment primary fold, INS promoter inh, INS promoter inh cell count, PKD1 kinase inh, GALR2 ag, RGS16-Gao
O=C(COC(=O)/C=C/c1ccccc1[N+](=O)[O-])NCC1CCCO1 (stereo unspecified)
    i, 0.89, ., ., -4, ., 103
O=C(Nc1ccsc1C(=O)NC1CC1)c1ccccc1
    i, 0.79, 85*, 132*, 50*, -1.7, 91
CC(NC(=O)/C(C#N)=C/c1ccc(Cl)c([N+](=O)[O-])c1)c1ccccc1 (stereo unspecified)
    i, 0.62, ., ., 1, -0.9, 113

Main list, repeating the preview:
Second line of a record: HSV augment, HSV augment primary fold, INS promoter inh, INS promoter inh cell count, PKD1 kinase inh, GALR2 ag, RGS16-Gao
O=C(COC(=O)/C=C/c1ccccc1[N+](=O)[O-])NCC1CCCO1 (stereo unspecified)
    i, 0.89, ., ., -4, ., 103
O=C(Nc1ccsc1C(=O)NC1CC1)c1ccccc1
    i, 0.79, 85*, 132*, 50*, -1.7, 91
CC(NC(=O)/C(C#N)=C/c1ccc(Cl)c([N+](=O)[O-])c1)c1ccccc1 (stereo unspecified)
    i, 0.62, ., ., 1, -0.9, 113
Cn1nnc2cc(C(=O)Nc3ccc4ccccc4c3)ccc21
    i, 0.95, ., ., -7, ., 101
CN1C(C(=O)NCCc2cccs2)CC2Cn3c(nc4ccccc43)C21 (stereo unspecified)
    i, 0.85, ., ., ., ., 103
O=C(CN(c1ccc(F)cc1)S(=O)(=O)c1ccc2c(c1)OCCO2)NCc1ccccc1
    i, 1.1, 6, 71, 10, -1.7, 103
CCNC(=O)OCc1cn(-c2ccc(Cl)cc2)nn1
    i, 1, -19, 27, -2, ., 106
C/C(=N\NC(=O)C(=O)N/N=C(\C)c1cccc(O)c1)c1cccc(O)c1
    i, 1.1, 24, 88, 3, ., 80
Cc1ccc2nc3c(cc2c1)c(NC(=O)c1ccccn1)nn3CC(C)C
    i, 0.87, -10, 136, -4, 2.7, 111
Cc1ccc(C(=O)Nc2ccc(C)c(S(=O)(=O)N(C)C)c2)s1
    i, 0.93, 6, 85, -4, 0.1, 104
Cn1c(=O)oc2cc(S(=O)(=O)NCCC(=O)N3CCc4ccccc4C3)ccc21
    i, 0.99, -8, 96, -2, -1.6, 101
O=C(c1ccc(Oc2ccc(C(F)(F)F)cn2)cc1)N1CCN(c2ccccc2)CC1
    i, 0.83, -29, 76, 3, -1.0, 72
CCOC(=O)c1c(C)n2c3c(cc(C)cc13)CCC2
    i, 1.1, 0, 192, -1, ., 107
COc1ccccc1Nc1nc(N)nc(CN2CC(C)CC(C)C2)n1 (stereo unspecified)
    i, 0.92, 8, 51, -3, ., 99
COCC(C)NCc1cccc(OC)c1OC (stereo unspecified)
    i, 0.93, -51, 49, 2, -1.7, 98
COC(=O)c1ccc(COC(=O)CNC(=O)c2ccco2)cc1
    i, 0.99, 4, 102, -1, -2.4, 95
CCOc1ccc(NC(=O)CSc2nc3nc4c(cc3c(=O)n2CC)COC(C)(C)C4)cc1
    i, 0.84, ., ., ., ., 116
COc1ccc(-c2ccc(-c3noc(-c4ccccc4OC)n3)c(OC)n2)cc1
    i, 0.94, -6, 73, -12, 1.5, 113
COc1cc(C2SCC(=O)N2CCN2CCCCC2)ccc1O (stereo unspecified)
    i, 1.1, 21, 122, -5, ., 99
Cc1nc(-c2ccc(S(=O)(=O)Nc3cc(S(=O)(=O)N(C)C)ccc3C)s2)cs1
    i, 1.1, ., ., ., ., 99

Second line of a record: HSV augment, HSV augment primary fold, INS promoter inh, INS promoter inh cell count, PKD1 kinase inh, GALR2 ag, RGS16-Gao
O=C(N1CCN(c2cccc(Cl)c2)CC1)C1(S(=O)(=O)c2ccc(Cl)cc2)CC1
    i, 0.96, -29, 142, -11, -4.0, 102
O=C(NCCC1=CCCCC1)c1ccc([N+](=O)[O-])cc1
    i, 1.1, 29, 113, 4, -0.7, 101
CCNC(=S)N/N=C/c1ccc(-c2ccccc2)o1
    i, 0.99, 0, 157, 7, -0.4, 96
COc1ccc(CNC(=O)COC(=O)[C@H](Cc2c[nH]c3ccccc23)NC(=O)c2cccs2)cc1
    i, 0.99, ., ., 6, -0.2, 98
O=C(Nc1ccccc1C(=O)O)c1ccc(Br)o1
    i, 1.1, 21, 82, 3, -1.4, 101
CS(=O)(=O)N(CC(=O)NC1CCCCCC1)Cc1ccccc1
    i, 1.1, -50, 105, -8, -1.3, 74
COC(=O)[C@@H]1C[C@@]2(O)[C@@H](O)[C@@H](O)[C@@H](O)C[C@H]2N1Cc1cc(OC)cc(OC)c1
    i, 0.92, ., ., ., ., 93
COc1ccccc1NS(=O)(=O)c1ccc2c(c1)n(C)c(=O)n2C
    i, 0.92, ., ., -6, -1.8, 98
N#CC1(C#N)C(C(=O)C23CC4CC(CC(C4)C2)C3)C12CCOCC2 (stereo unspecified)
    i, 0.97, ., ., -2, ., 92
O=C(CNCc1ccc(F)cc1)Nc1ccccc1-c1ccccc1
    i, 0.84, -21, 138, 8, -0.1, 104
Nc1ccc2c(c1)C(=O)C(=O)c1ccccc1-2
    i, 0.35, -239, 78, 4, -1.1, 15
COc1ccc(OC)c(NC(=O)CSc2nnc(Cn3c(=O)sc4ccccc43)n2C)c1
    i, 1.1, ., ., -1, -0.8, 101
O=C(Nc1nccs1)C1Cc2ccccc2CN1S(=O)(=O)c1ccc(F)cc1 (stereo unspecified)
    i, 0.88, -12, 148, 2, -5.8, 100
Cc1sc2ncn(CCC(=O)O)c(=O)c2c1C
    i, 1.1, -21, 82, -10, -2.7, 105
Cc1ccc(OCc2nnc(SCCN3CCOCC3)n2C)cc1
    i, 0.96, ., ., -20, -2.8, 44
CCCOc1ccc(/C=C/C(=O)Nc2ccc([N+](=O)[O-])cc2C)cc1OC
    i, 0.85, 29, 55, -14, -2.5, 102
Cc1cccc(N/N=C2/COC(C)(C)CC2=O)c1
    i, 1, 11, 84, -3, -1.4, 118
Cc1ccc(NC(=O)Nc2ccc(F)cc2)cc1Cl
    i, 1, ., ., 5, ., 114
CCOC(=O)/C(C(N)=NCCO)=C(/O)c1ccccc1
    i, 0.79, -14, 89, 5, 0.8, 101
NC(=O)c1c(NC(=O)CN2CCCC2)sc2c1CCCC2
    i, 1.1, -62, 114, -5, 2.0, 101

Second line of a record: HSV augment, HSV augment primary fold, INS promoter inh, INS promoter inh cell count, PKD1 kinase inh, GALR2 ag, RGS16-Gao
FC(F)c1nnc2c(Cl)cc(C(F)(F)F)cn12
    i, 1.1, 5, 64, -6, ., 99
CC(=O)Nc1ccc(Nc2nc(Cl)nc(Nc3ccc(NC(C)=O)cc3)n2)cc1
    i, 0.99, 50, 101, -1, ., 99
COc1ccc(-c2noc(CN(C)C(=O)Nc3ccccc3)n2)cc1
    i, 0.87, ., ., -3, ., 102
O=C(O)/C=C/C(=O)Nc1ccccc1SC(F)(F)F
    i, 0.98, ., ., -8, -1.7, 90
Cc1cc(=O)oc(C)c1C(=O)NCCCN1C(C)CCCC1C (stereo unspecified)
    i, 1.1, ., ., -11, -4.8, 106
Cc1nnc(SCC(=O)NC(=O)NC(C)(C)C)n1N
    i, 0.83, ., ., -11, -1.4, 102
C=CCNC(=O)c1ccccc1NC(=O)c1ccc(Cl)c(S(=O)(=O)Nc2cc(C)ccc2C)c1
    i, 1, ., ., 14, -1.3, 102
O=C(COc1cccc(C(F)(F)F)c1)NCCCN1CCCC1=O
    i, 1.1, -3, 124, -1, -0.4, 94
C=CCSc1nc2c(c(C3CC=CCC3)c1C#N)CCC2 (stereo unspecified)
    i, 1, 60, 83, -9, 2.4, 102
CCCCn1c(/N=C/c2ccc3c(c2)OCO3)nc2ccccc21
    i, 1, -81, 80, 1, 0.8, .
c1ccc(-c2nnc3sc(CN4CCc5ccccc54)cn23)cc1
    i, 0.98, -101, 93, -3, -2.6, 104
O=C(c1ccc(-c2ccccc2)c(F)c1)C1CCCN(CCCn2cccn2)C1 (stereo unspecified)
    i, 0.87, ., ., ., ., 110
Cc1cc(N=Nc2ccc(Cl)cc2)cc(CN2CCCC2)c1O
    i, 0.94, ., ., ., ., 98
CCOc1ccc2[nH]c(=O)c(C(c3nnnn3CC3CCCO3)N3CCc4ccccc4C3)cc2c1 (stereo unspecified)
    i, 0.77, -7, 121, -3, 0.5, 99
CCOC(=O)c1ccc(NC(=O)C23CCC(C)(C(=O)O2)C3(C)C)cc1 (stereo unspecified)
    i, 0.94, -26, 129, 3, -2.7, 99
CCOc1ccc(-c2nc(-c3ccccc3C)no2)cc1
    i, 0.91, 0, 271, -5, -3.8, .
Cc1ccc(S(=O)(=O)n2ccc(-c3ccc(OCc4c(F)cccc4Cl)cc3)n2)cc1
    i, 1, -4, 111, -17, -1.3, 114
CSc1nnc(-c2sc3cc(C(F)(F)F)cnc3c2-c2cccnc2)n1C
    i, 1, 29, 67, -15, -2.6, 97
Cn1c(=O)c2c(nc(Oc3ccc4c(c3)OCO4)n2Cc2ccc(Br)cc2)n(C)c1=O
    i, 0.95, ., ., ., ., 95
Cc1nc2cc(Nc3nnc(-c4ccccc4)c4ccccc34)ccc2n1C
    i, 0.88, 40, 72, -8, 3.1, 94

Second line of a record: HSV augment, HSV augment primary fold, INS promoter inh, INS promoter inh cell count, PKD1 kinase inh, GALR2 ag, RGS16-Gao
Cc1ccc(-c2noc(/C=C/c3ccccc3)n2)cc1
    i, 1, -20, 60, -1, -0.2, 104
CCc1ccc2oc(-c3ccc(OC)cc3)cc(=Nc3c(C)n(C)n(-c4ccccc4)c3=O)c2c1
    i, 0.91, 6, 119, -2, ., 104
Cc1c(Cl)cccc1-c1ccc(/C=N/n2cnnc2)o1
    i, 0.93, 6, 121, 0, -1.2, 101
Cc1ccc(S(=O)(=O)N2c3ccccc3-c3c(ssc3=S)C2(C)C)cc1
    i, 0.95, 19, 137, -2, -2.5, 101
CC1CCN(C2(O)C(=O)Nc3ccc(Br)cc32)CC1 (stereo unspecified)
    i, 1.1, -20, 102, 4, ., 113
Cc1cc(NC(=O)c2ccccc2)ncc1NC(=O)c1ccco1
    i, 0.93, ., ., 2, -1.9, 100
CC(=O)Nc1cc(C(=O)N2CCN(C)CC2)ccc1Sc1ccc(C)cc1
    i, 0.97, -17, 83, -6, -1.2, 97
COc1ccccc1NS(=O)(=O)c1cccc(C(=O)N/N=C/c2c(C)nn(-c3ccccc3)c2N2CCCC2)c1
    i, 0.9, 44, 70, -9, 0.6, 37
CN1/C(=C\C(=S)NC(=O)c2cccc(Br)c2)C(C)(C)c2ccccc21
    ., ., ., ., -10, -0.9, 100
COc1ccc(-c2nc3nc(SC)nn3cc2C)cc1F
    i, 0.96, ., ., -2, ., 94
O=C(NCc1ccc2c(c1)OCO2)C1CC(c2cccc(Br)c2)=NO1 (stereo unspecified)
    i, 0.94, -41, 73, -4, -3.5, 102
CC(C)=CCC1=C(OCC(=O)O)C(=O)c2ccccc2C1=O
    i, 0.79, ., ., ., ., 93
O=c1[nH]n2cc(-n3cc([N+](=O)[O-])cn3)cnc2c1Br
    i, 0.85, ., ., -8, ., 102
Cc1ccccc1C(=O)Oc1cc(N)n(S(=O)(=O)c2ccccc2)n1
    i, 1, 3, 129, -10, ., 92
COc1ccccc1N1CCN(c2nc(N)c(C#N)c(CC#N)c2C#N)CC1
    i, 1.2, 27, 56, -7, -0.6, 105
CCOC(=O)COc1ccc(S(=O)(=O)N2CCN(c3ccccc3F)CC2)cc1
    i, 0.99, 50, 42, -3, -1.1, 106
CCOc1ccc(C(=O)NCCCN(CC)CC)cc1
    ., ., -15, 142, -6, -0.8, 103
CC(=O)NC1C(=O)Nc2c(C)cc(C)cc21 (stereo unspecified)
    i, 1.1, -56, 141, -5, -2.0, 96

Three of the entries above in order of the HSV augment primary fold value, rising.
smiles,HSV augment,HSV augment primary fold,PKD1 kinase inh,GALR2 ag,RGS16-Gao
CCOc1ccc(NC(=O)CSc2nc3nc4c(cc3c(=O)n2CC)COC(C)(C)C4)cc1,i,0.84,.,.,116
O=C(NCc1ccc2c(c1)OCO2)C1CC(c2cccc(Br)c2)=NO1 (stereo unspecified),i,0.94,-4,-3.5,102
CCNC(=O)OCc1cn(-c2ccc(Cl)cc2)nn1,i,1,-2,.,106
